From PubChem
ALR H2O2 inh: inhibitors of human sulfhydryl oxidase ALR. purified ALR, DTT oxidation, H2O2 HRP-luminol luminescence. inhibition, % (concentration not given with the values). AID 485317. P55789. actives 3.8% (n = 290,000);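 active means mean and each replicate at 75% or more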;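 further: stock transfer was 7.5 nL into about 7.5 µL; 0% = neutral wells and 100% = wells with inactivated enzyme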
FGF22 binding: binders of recombinant human FGF22 by thermal shift. Q9HCT0. actives 1.5% (n = 340,000). SYPRO orange fluorescence; percent of sucrose octasulfate shift, DMSO zero. calls only at 9.99 µM;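 active means melting point raised past a set limit in the mean and every replicate; three in four hits are not shown here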
E coli growth: inhibitors of Escherichia coli growth; OD600, 23 h; hits give low values; OD600 absorbance (no concentration beside the values); actives 0.21% (n = 330,000);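 active means OD600 absorbance below the run mean of sample wells minus 3.6 SD, in any replicate, cut at about 0.56 in these data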;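 further: stock transfer was 300 nL into about 60 µL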
B2AR ag: activates human beta-2 adrenergic receptor causing internalization | P07550 | Am2.2-beta2AR cells, FAP receptor internalization, flow cytometry; reference of the scale not given here | response, % (concentration not given with the values) | actives 0.43% (n = 340,000) | AID 504454;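 active means response above a set limit, near 3 SD of response in nonfluorescent compounds, cut at about 42% in these data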;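 further: stock transfer was 100 nL into about 11 µL; a reference agonist was the positive control; negative values mostly stem from fluorescent compounds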
Target sequence (P07550 whole entry, looked up): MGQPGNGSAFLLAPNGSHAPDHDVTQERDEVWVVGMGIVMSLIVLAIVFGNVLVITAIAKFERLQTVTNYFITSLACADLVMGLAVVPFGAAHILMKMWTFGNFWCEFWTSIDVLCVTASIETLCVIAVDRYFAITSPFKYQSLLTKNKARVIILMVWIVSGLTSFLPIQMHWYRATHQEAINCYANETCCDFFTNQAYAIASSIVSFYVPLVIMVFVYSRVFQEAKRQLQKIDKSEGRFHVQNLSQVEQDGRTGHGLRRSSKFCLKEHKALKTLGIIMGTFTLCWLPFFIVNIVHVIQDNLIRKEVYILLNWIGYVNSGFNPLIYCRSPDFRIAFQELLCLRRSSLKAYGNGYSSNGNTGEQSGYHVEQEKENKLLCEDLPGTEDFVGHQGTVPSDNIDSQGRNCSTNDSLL
UCH37 DUB inh: blocks the human deubiquitinase UCH37; Q9Y5K5; inhibition, % (test concentration not listed); purified proteasome/UCH37, Ub-AMC cleavage fluorescence; actives 0.33% (n = 330,000);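 active means mean of two replicates above 20%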;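 further: 0% = compound-free wells with enzyme and 100% = wells lacking proteasome; stock transfer was 100 nL into about 20 µL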
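System: Proteasome-associated human UCH37 deubiquitinase; Input: 0.15 nM proteasome in added enzyme buffer; Also added: Ub-AMC substrate from 1 µM stock; Incubation: 30 min compound-proteasome preincubation then 25 min substrate reaction, room temperature; Detection: fluorescence, ex 355 nm, em 460 nm; Read-out: % inhibition of Ub-AMC cleavage fluorescence; Benchmarks: no-proteasome and no-compound wells.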
Ecoli rRNA inh: inhibits bacterial ribosomal RNA function over humanized ribosomes. GFP signal change (wild-type ribosome), % (no concentration beside the values). AID 720706. actives 1.6% (n = 350,000). E. coli WT GFP vs humanized-ribosome RFP mutants, fluorescence, 24 h; hits give low values; DMSO median 0, no signal -100;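 active means significant combined selectivity score with lowered wild-type GFP, culture density cut under 30%, mutant RFP and density less affected; inactive means any of these conditions unmet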; further: one replicate is shown; some compounds called inactive have numbers as strong as hits
HNF4A DNA FP: change in binding of human HNF4 alpha to DNA | P41235 | HNF4a-FITC DNA binding, fluorescence polarization, 1 h | activity change, % at 10 µM | actives 0.3% (n = 360,000) | AID 1224865; in the data active means activity change above about 30%, passing the limit was not always enough;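 further: controls were the assay level and a saturating level of protein; the project sought stronger binding though the title names inhibitors; some compounds called inactive have numbers as strong as hits; positive values seem to mean higher polarization but the record does not say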
Target sequence (P41235 whole entry, looked up): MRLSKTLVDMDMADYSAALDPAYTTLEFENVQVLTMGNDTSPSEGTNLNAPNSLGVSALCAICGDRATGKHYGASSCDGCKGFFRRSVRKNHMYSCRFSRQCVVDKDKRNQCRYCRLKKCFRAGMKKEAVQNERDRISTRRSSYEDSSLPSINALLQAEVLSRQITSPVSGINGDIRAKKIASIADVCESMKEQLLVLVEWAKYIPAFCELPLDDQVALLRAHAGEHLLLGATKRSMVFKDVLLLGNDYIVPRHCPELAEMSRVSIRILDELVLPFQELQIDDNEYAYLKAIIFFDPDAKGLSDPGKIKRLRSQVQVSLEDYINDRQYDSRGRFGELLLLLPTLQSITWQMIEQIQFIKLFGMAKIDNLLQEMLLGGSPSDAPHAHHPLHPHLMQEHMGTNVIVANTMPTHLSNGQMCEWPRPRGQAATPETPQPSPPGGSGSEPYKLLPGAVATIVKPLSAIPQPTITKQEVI
Ecoli rRNA inh OD600: second read-out of Ecoli rRNA inh, no call of its own (marks repeat the call); OD600 change, %; measured here: OD600 growth;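 optical density of the mix in the first replicate; 0 = DMSO median and -100 = no signal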
Ecoli rRNA inh RFP: also measured in Ecoli rRNA inh; calls as there; RFP signal change, %; measured here: RFP humanized mutant strains;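 first replicate; 0 = DMSO median and -100 = no signal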
* = called active by the depositor; i = inactive; · = not tested or not shown; & = joins results of further samples. This is a subset (hit frequency here may not be typical).

SMILES	ALR H2O2 inh	FGF22 binding	E coli growth	B2AR ag	UCH37 DUB inh	Ecoli rRNA inh	Ecoli rRNA inh OD600	Ecoli rRNA inh RFP	HNF4A DNA FP
Cc1sc(N/N=C/c2cc([N+](=O)[O-])ccc2O)nc1-c1ccccc1	-17	i	·	4	·	5	5	0.5	3.0
CC(C)CCN1C(=O)c2ccc(C(=O)NCc3ccccn3)cc2C1=O	0	i	0.66	-2	0.1	3	2	2.1	-4.5
Cc1ccc(C2C(C#N)=C(N)Oc3nc(-c4ccccc4)[nH]c32)o1 (stereo unspecified)	16	·	0.69	3	2.1	·	·	·	-0.1
CCOC(=O)[C@H]1[C@H]2COc3ccc(Br)cc3[C@H]2N2C(=O)CN(Cc3ccc(C)cc3)C(=O)[C@@]12C	·	i	·	9	·	23	9	3.3	-26
CC1(C(=O)NS(=O)(=O)c2cccc(C#N)c2)CCN1C(=O)C1(c2ccc(Cl)cc2)CC1 (stereo unspecified)	·	i	·	·	·	1	5	0.1	4.7
COc1cccc(C(=O)C2=NN(C(C)=O)CC2c2ccco2)c1 (stereo unspecified)	-33	i	0.7	-1	4.7	-10	-9	-0.5	0.2
CCc1nnc(SCC(=O)Nc2ccc(NC(C)=O)cc2)n1-n1cccc1	2	i	0.66	5	2.8	2	4	-1.0	0.8
CCN(c1ccc(OC)cc1)S(=O)(=O)c1nnc(NC(=O)c2ccccc2Cl)s1	-1	·	0.65	10	1.5	·	·	·	0.6
COc1cccc(NC(=O)CN2CCSc3ccccc32)c1	100*	i	0.65	3	-1.0	-18	-18	-2.0	3.8
Cc1ccc(NC(=O)CN2CCN(C)CC2)cc1S(=O)(=O)N1CCOCC1	-10	i	0.69	-3	1.6	-1	-1	-3.3	3.5
CCc1nnc(NC(=O)c2ccc(-c3cccc(C(F)(F)F)c3)o2)s1	-8	·	0.68	-7	-16	·	·	·	4.3
CCNc1cc(S(=O)(=O)C(F)(F)F)ccc1N	·	·	0.69	-3	6.0	·	·	·	0.4

Full records from above.
Shown for CCNc1cc(S(=O)(=O)C(F)(F)F)ccc1N : ALR H2O2 inh = ·; FGF22 binding = ·; E coli growth = 0.69; B2AR ag = -3; UCH37 DUB inh = 6.0; Ecoli rRNA inh = ·; Ecoli rRNA inh OD600 = ·; Ecoli rRNA inh RFP = ·; HNF4A DNA FP = 0.4
Shown for CCN(c1ccc(OC)cc1)S(=O)(=O)c1nnc(NC(=O)c2ccccc2Cl)s1 : ALR H2O2 inh = -1; FGF22 binding = ·; E coli growth = 0.65; B2AR ag = 10; UCH37 DUB inh = 1.5; Ecoli rRNA inh = ·; Ecoli rRNA inh OD600 = ·; Ecoli rRNA inh RFP = ·; HNF4A DNA FP = 0.6
Shown for CCc1nnc(SCC(=O)Nc2ccc(NC(C)=O)cc2)n1-n1cccc1 : ALR H2O2 inh = 2; FGF22 binding = i; E coli growth = 0.66; B2AR ag = 5; UCH37 DUB inh = 2.8; Ecoli rRNA inh = 2; Ecoli rRNA inh OD600 = 4; Ecoli rRNA inh RFP = -1.0; HNF4A DNA FP = 0.8

Additional entries
SMILES	ALR H2O2 inh	FGF22 binding	E coli growth	B2AR ag	UCH37 DUB inh	Ecoli rRNA inh	Ecoli rRNA inh OD600	Ecoli rRNA inh RFP	HNF4A DNA FP
Cc1ccc(S(=O)(=O)NCC(=O)N2CCCC2C(=O)O)cc1 (stereo unspecified)	0	i	0.69	-1	3.4	5	7	0.1	0.1
Cc1cc(NC(=O)CCN2CCN(C)CC2)ccc1Br	-5	i	0.64	7	1.9	-4	7	2.6	-0.5
Cc1cc(C)n(NC(=S)NC2CCCC2)c(=O)c1C#N	6	i	0.65	1	9.6	13	-8	-0.5	-0.6
C/C=C(/C)C(=O)Nc1cccc(C2=NOC3(C2)C[C@@H](C(N)=O)N(C(=O)/C=C/CC)C3)c1 (stereo partly specified)	-2	i	·	-9	0.0	2	10	-3.7	-1.4
COc1ccc(CNC(=O)C(OC(=O)c2cccs2)C(C)C)cc1 (stereo unspecified)	·	i	0.67	1	2.3	0	-2	-0.7	5.5
CN(C)S(=O)(=O)N1CCN(c2ccnc3cc(Cl)ccc23)CC1	-10	·	0.63	8	8.7	·	·	·	-4.3
COC(=O)c1ccccc1NS(=O)(=O)c1c(C)noc1C	-11	i	0.7	3	5.1	5	8	0.3	-1.8
Cc1c(Cl)cccc1NC(=S)N1CCN(Cc2ccccc2)CC1	-5	·	0.73	4	1.7	·	·	·	2.7
CC(=O)N1CCCc2cc(S(=O)(=O)N3CCCC(C(=O)N4CCN(c5ccccc5)CC4)C3)ccc21 (stereo unspecified)	23	i	0.66	1	-0.2	-3	-12	0.9	3.2
O=C(CCN1C(=O)c2ccccc2C1=O)NCc1cccc(Cl)c1	-4	i	0.69	-6	4.0	4	-2	-1.0	-0.4
CCOC(=O)/C(N=Nc1c(C)n(C)n(-c2ccccc2)c1=O)=C(\C)O	3	·	0.69	2	12	·	·	·	1.0
Cc1ccc2c(c1)sc(-c1ccc(N(C)C)cc1)[n+]2C	43	i	0.32*	-162	-2.6	-40	-77	-20	0.2
O=C1c2ccccc2S(=O)(=O)c2cc(N3CCC(C(=O)N4CCCCC4)CC3)ccc21	0	i	0.68	·	4.4	-21*	-8.5*	2.6*	·
O=C(O)c1ccc(COc2ccccc2/C=C2\NC(=O)N(Cc3ccc(F)cc3)C2=O)cc1	-17	·	0.68	-5	-8.2	11	8	-3.9	-3.0
COc1cccc(-c2nnc3sc(-c4ccco4)nn23)c1	-9	·	0.7	-4	-0.9	·	·	·	0.4
C/C(Cl)=C\C[N+](C)(C)CC(=O)OCCc1ccccc1	6	i	0.65	17	2.8	0	7	-5.7	2.2
C=CCn1c(SCC(C)=O)nnc1-c1cc(-c2ccccc2)sc1N	31	·	0.69	-4	0.5	·	·	·	20
Cc1csc2c(N3CCC(C(=O)O)CC3)ncnc12	-1	i	0.68	9	2.2	-32*	-6.5*	0.3*	1.3
CS(=O)(=O)Nc1ccc(S(=O)(=O)N2CCOCC2)cc1	-8	·	0.68	-3	2.8	·	·	·	0.5
O=C(c1ccc(S(=O)(=O)Nc2ccccc2)cc1)N1CCCC(C(F)(F)F)C1 (stereo unspecified)	-9	i	0.68	10	2.5	1	13	-2.9	1.8
O=C(COC(=O)c1ccc(NS(=O)(=O)c2ccc3c(c2)OCCO3)cc1)NC1CC1	0	·	0.73	8	1.5	·	·	·	-0.4
CSc1ncc(Cl)c(C(=O)Nc2ccc(S(=O)(=O)Nc3nccc(C)n3)cc2)n1	-4	i	0.7	-5	5.7	6	15	-0.6	-2.1
COc1ccccc1CNC(=O)CSc1nnc2c(Cl)cc(C(F)(F)F)cn12	-12	i	0.68	-15	-1.6	3	7	-0.9	0.6
CCN(C(=O)COC(=O)c1c(C)nn(-c2ccccc2)c1Cl)c1c(N)n(Cc2ccccc2)c(=O)[nH]c1=O	·	i	0.62	9	0.1	8	2	1.6	-2.5
CCCCn1[nH]c(-c2ccccc2)cc1=O	8	·	0.68	2	1.8	·	·	·	0.5
CCCCCOc1ccc(C(=O)NC(C(=O)O)C(C)C)cc1 (stereo unspecified)	-5	·	0.67	4	1.2	-9	7	15	2.8
CCOC(=O)c1ccc(Cn2cnc3ccccc3c2=O)cc1	·	·	0.7	-1	3.9	·	·	·	-1.0
CC(C)(C)c1ccc(-c2c(C(=O)O)c(C(=O)O)c3n2CSC3)cc1	55	i	0.69	-4	2.8	3	-2	2.5	-7.2
CC(C)(CNCc1ccccc1)NS(=O)(=O)c1ccccc1	1	i	0.68	-4	0.0	2	4	-2.2	3.2
CSCC(=O)N1CCCC(CNC(=O)c2ccc(-c3ccccc3)cc2)C1 (stereo unspecified)	-8	i	0.67	-2	1.8	-17	-16	-2.6	12
CCc1c(C)c2ccc(OCC(N)=O)cc2oc1=O	-8	·	0.65	-5	-144	·	·	·	-1.6
CCOC(=O)c1ncn2c1[C@@H]1CCNC1C(=O)c1cc(OC)ccc1-2 (stereo partly specified)	4	i	·	-19	4.8	·	·	·	0.4
Cc1nn(CC(C)C)c(=S)[nH]c1=O	44	·	0.68	3	2.3	·	·	·	-0.9
COc1cc(CN2CCN(S(=O)(=O)c3ccc(F)cc3)CC2)cc(OC)c1OC	2	·	0.69	5	1.4	·	·	·	3.9
C[C@@H]1CN([C@@H](C)CO)C(=O)c2cc(NC(=O)Nc3cccc4ccccc34)ccc2O[C@@H](C)CCCCO[C@H]1CN(C)C(=O)c1ccccc1	·	i	·	·	·	-3&0	0&2	1.7&-0.1	-1.1
CC(C)C(=O)Nc1cccc(C(=O)NCc2ccc3c(c2)OCO3)c1	-1	i	0.63	-9	1.4	-2	8	-2.5	-4.5
Cc1ccc(NS(=O)(=O)N(C)C)cc1	-13	·	0.74	10	-0.9	·	·	·	-2.2
CCN1CCN(Cc2ccc(NC(=O)c3ccc(C)c(NC(=O)c4cccc5[nH]ccc45)c3)cc2C(F)(F)F)CC1	-7	i	0.7	17	-0.5	-26&-1	-35&-9	5.4&7.0	-3.2&5.2
O=C(Nc1ccccc1C(=O)NCc1ccc(Cl)cc1)c1ccco1	0	·	0.68	0	0.3	·	·	·	0.6
CCCn1c(SCC(=O)Nc2cc(Cl)ccc2OC)n[nH]c1=O	1	·	0.67	-10	3.3	·	·	·	-2.2
O=[N+]([O-])c1nc2ccccc2[nH]1	·	i	·	3	·	4	14	-1.3	0.2
Cc1cc(C)c(C#N)c(N2CCCC(C(N)=O)C2)n1 (stereo unspecified)	1	·	0.71	-4	-106	·	·	·	2.7
COC(=O)[C@H](CC(C)C)NC(=O)Cn1cnc2c(NCc3ccccc3)ncnc21	·	i	0.69	2	3.2	6	3	-1.6	2.9
O=c1c2ccccc2nc(COc2ccccc2)n1/N=C/c1c[nH]c2ccccc12	·	i	·	4	·	5	6	-6.8	3.4
Cc1cc(C)cc(N=C2NC(=O)/C(=C/c3cccs3)S2)c1	-1	i	0.69	1	2.0	5	2	1.4	0.2
CCCNC(=O)C(Cc1ccc(C(F)(F)F)cc1)NC(=O)c1ccc(C#N)cc1 (stereo unspecified)	0	i	0.73	1	1.6	7	6	2.8	-5.6
CN(C)/C=N/c1ncc(C(=O)c2ccc(Cl)cc2)s1	-4	·	·	-19	·	·	·	·	1.1
Cc1ccc(S(=O)(=O)N2CCCCC2)cc1NC(=O)CCNC(=O)c1ccc([N+](=O)[O-])cc1	·	i	0.71	4	1.3	13	8	0.7	-4.1
O=C(/C=C/c1ccco1)NC(=S)Nc1nc(-c2ccc(Cl)cc2)cs1	-2	i	0.76	8	9.7	-30	-1	-3.9	5.9
COCC(=O)N[C@H]1C=C[C@@H](CC(=O)NCc2ccccc2OC)O[C@@H]1CO	·	i	·	·	·	2&11	3&1	0.3&1.7	1.8
